Source: PubChem BioAssay
Sfp PPTase inh: qHTS Assay for Inhibitors of Bacillus subtilis Sfp phosphopantetheinyl transferase (PPTase) | 4'-phosphopantetheinyl transferase ffp (Bacillus subtilis), Q9F4F7 | Biochemical Sfp PPTase activity, qHTS | Potency, µM, without a hit: max response, negative = inhibition, most hits filed as inhibitors | actives 3.5% (n = 310,000); active means well fitted inhibition curve with a large enough effect; inconclusive means small, poorly fitted or top-dose-only effect, or another doubt; inactive means no such curve, though single readings can be large or run the other way;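 further: the enzyme is Sfp with the accession as filed and its product quenches rhodamine fluorescence; potency means the concentration at half of the fitted maximal effect; 0% = enzyme reaction without inhibitor and -100% = no enzyme wells; top concentration of the series not given in the record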
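Step 1, compound plus 15 nM Sfp-PPTase, 15 min, room temperature. Step 2, add rhodamine-CoA (5 uM) and BHQ-2-YbbR (12.5 uM). Step 3, read 525/598 nm fluorescence at 0 and 30 min.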
PINK1 modulator: A Quantitative High throughput Screen to Identify Chemical Modulators of PINK1 Expression; PINK1 immunofluorescence, high-content cytometry, 24 h; Potency, µM (doses to about 76.6 µM), for inactives: at the top dose activation (PINK1 increase), hits mostly activators; actives 0.2% (n = 410,000); AID 624263, 2012; active = well fitted activation curve with a large enough effect; inconclusive = small, poorly fitted or top-dose-only effect; inactive = flat fitted curve, though single readings scatter; cell line not stated here;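 further: potency means the concentration at half of the fitted maximal effect; % of control where 0% means no effect; nearly all actives have a fitted effect of over 65% in size; a mitochondrial uncoupler was the plate control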
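Decision-based qHTS: stable cells, 24 h exposure to five compound concentrations, CCCP as control. Fixed cells stained for PINK1 plus nuclear, mitochondrial and cell markers, cytometer read.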
TRPML1 blocker: qHTS for Inhibitors of the Human Mucolipin Transient Receptor Potential 1 (TRPML1); Mucolipin-1 (Homo sapiens), Q9GZU1; TRPML1-inducible cells, Ca2+ dye fluorescence, FDSS; stronger effect = lower value; inhibition of EC80 agonist-evoked calcium signal; activity change, negative = inhibition, % (test concentration not listed); actives 0.02% (n = 390,000); in the data active means activity change below about -50%; inconclusive means about -30% to -50%; inactive means above about -30%;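 further: stimulus is agonist 54-4 at its EC80 concentration; on the % scale 0 is the no-effect control and ±100 the full control effect; compound concentration not given in the record; the text of the record puts the active cut at -80%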
Target sequence (Q9GZU1 whole entry, looked up): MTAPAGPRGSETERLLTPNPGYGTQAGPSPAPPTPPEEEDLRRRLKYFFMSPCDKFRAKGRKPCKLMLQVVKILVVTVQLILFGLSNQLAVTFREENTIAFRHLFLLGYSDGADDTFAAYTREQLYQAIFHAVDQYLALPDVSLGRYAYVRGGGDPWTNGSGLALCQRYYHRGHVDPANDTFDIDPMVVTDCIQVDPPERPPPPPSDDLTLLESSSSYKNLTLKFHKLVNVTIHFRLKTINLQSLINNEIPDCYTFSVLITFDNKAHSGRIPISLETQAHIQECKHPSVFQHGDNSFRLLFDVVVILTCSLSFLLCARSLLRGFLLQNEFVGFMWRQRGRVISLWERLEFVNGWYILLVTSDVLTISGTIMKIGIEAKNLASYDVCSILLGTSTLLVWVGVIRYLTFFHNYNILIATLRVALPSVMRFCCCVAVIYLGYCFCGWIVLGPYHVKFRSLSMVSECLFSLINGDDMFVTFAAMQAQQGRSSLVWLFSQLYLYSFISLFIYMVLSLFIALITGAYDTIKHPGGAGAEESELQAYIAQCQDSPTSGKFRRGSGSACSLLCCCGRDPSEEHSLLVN
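Calcium fluorescence in TRPML1-DL cells induced overnight with Tet: a 110 s read after compound pin addition, then a 110 s antagonist read after challenge with 54-4 at 4 uM final (EC80).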
TRPV1 potentiator: HTS Assay for Compounds that Act as Potentiators of the Vanilloid Receptor 1; Transient receptor potential cation channel subfamily V member 1 (Homo sapiens), Q8NER1; TRPV1-expressing cells, Fluo-8 calcium influx, capsaicin EC20 potentiation; host cell line not named in the record; control for the full effect not named in the record; potentiation, % at 8.33 µM; actives 0.02% (n = 320,000); active means potentiation above 80%; inconclusive means 30% to 80%; inactive means below 30%; further: 0% is about no effect
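Fluo-8 calcium influx in TRPV1-expressing cells, kinetic read (ex 480/em 520 nm). Compound added and read 3 min for agonist activity, followed by capsaicin at EC20 final and 2 min further read for enhancement.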
Menin MLL FP FL: qHTS Assay for Inhibitors Targeting the Menin-MLL Interaction in MLL Related Leukemias: Competition With Fluorescein Labeled MLL-derived Peptide; FP activity change, % at 61.4 µM; 290,000 tested, under 10 active; Fluorescence polarization, fluorescein-MLL peptide displacement from menin; inconclusive = falling polarisation curve, or a change in total fluorescence; inactive = total fluorescence flat and polarisation flat or rising; no compound was filed as active; the % refers to the polarisation; negative = inhibition;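 further: % of control where 0% means no effect; inhibitors lower the polarisation; unlabelled MLL peptide was the positive control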
TRPML1 agonist: qHTS for Agonists of the Human Mucolipin Transient Receptor Potential 1 (TRPML1) | Mucolipin-1 (Homo sapiens), Q9GZU1 | TRPML1-expressing cells, Ca2+ dye fluorescence, FDSS; host cell line not named in the record; reference of the full effect not given here | activation, % (test concentration not listed) | actives 0.12% (n = 410,000) | AID 624414, 2012; in the data active = activation above about 50%; inconclusive = about 30% to 50%; inactive = below about 30%; further: 0% is about no effect; the text of the record puts the active cut at 80%
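Agonist activity was taken from a 110 s kinetic Ca2+ dye read on the FDSS after pinning compounds onto TRPML1-DL cells. The cells were seeded at 1,500/well with Tet inducer, incubated about 16 h, then dye-loaded at room temperature.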
ClpP mod: qHTS Assay for Activators of ClpP; ATP-dependent Clp protease proteolytic subunit (Bacillus subtilis (strain 168)), P80244; purified B. subtilis ClpP, FRET peptide cleavage, 20 min; Potency, µM (highest dose often 57.5 µM), for inactives: at the highest dose activity change, negative = active; actives 1.9% (n = 340,000); AID 651965, 2013; active = well fitted falling curve with a large enough effect; inconclusive = small, poorly fitted or top-dose-only effect; inactive = no such curve, though single readings can be large or run the other way; further: potency means the concentration at half of the fitted maximal effect; the source files actives as falling curves though it sought activators and does not explain the sign; nearly all actives have a fitted effect of over 65% in size; many hits overshoot -100%
Target sequence (P80244 whole entry, looked up): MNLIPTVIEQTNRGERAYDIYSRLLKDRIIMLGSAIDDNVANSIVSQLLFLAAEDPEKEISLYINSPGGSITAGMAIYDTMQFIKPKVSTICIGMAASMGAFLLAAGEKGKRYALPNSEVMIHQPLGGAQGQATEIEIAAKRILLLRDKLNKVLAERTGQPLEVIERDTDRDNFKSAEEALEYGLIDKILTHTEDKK
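Buffer: 100 mM Tris/HCl pH8, 100 mM KCl, 0.05% low protease BSA, 2.5% glycerol, 0.01% Tween-20. ClpP 10 microg/mL final; 20 min RT; delta FRET normalized to ADEP and DMSO controls.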
Numbers without * were called inactive; u = inconclusive; x = no result given; & = joins results of further samples; [ ] = remark or other dose. Outcome played no part in choosing rows; 4.4% or so of the library scored in one or more.

SMILES	Sfp PPTase inh	PINK1 modulator	TRPML1 blocker	TRPV1 potentiator	Menin MLL FP FL	TRPML1 agonist	ClpP mod
CC(OC(=O)c1ccc2noc(-c3ccccc3)c2c1)C(N)=O (stereo not given)	9.2%	-1.2%	-8.6	-15.8	2.1	0.9	x
O=C(CCCCCN1C(=O)c2cccc3cccc(c23)C1=O)NCCCO	1.1%	0.4%	-19.4	2.5	0.1	-0.3	0.1%
CC(=O)O/N=C/c1c(N2CCOCC2)n(C)c2ccccc12	10.0%	-2.7%	9.7	x	1.5	-0.6	-0.7%
O=CNCCCc1nc2ccccc2n1CCc1ccccc1	0.5%	0.8%	-1.6	-14.0	-7.6	-0.9	0.2%
CCCCCCN1C[C@@H](O)[C@H](n2cc(COC(=O)c3ccccc3)nn2)C[C@@H]1c1ccc(OC)cc1	x	4.3%	-7.3	x	x	-0.1	-3.1%
O=C(c1cc(F)c(F)c(F)c1F)N1CCN(C(=O)C2CCCO2)CC1 (stereo not given)	x	-0.7%	1.0	x	x	0.4	1.0%
CCN(CC)c1ccc(/C=N/NC(=S)NCc2ccccc2)cc1	2.3%	2.6%	11.0	-0.4	-5.5	0.9	25.1µM*
CC(=O)Oc1ccc2c(=O)c(-c3ccccc3)coc2c1	5.1%	-0.3%	15.2	-3.4	1.2	-0.5	x
CC(C)Cn1c(-c2cc([N+](=O)[O-])ccc2Cl)nc2c1c(=O)[nH]c(=O)n2Cc1ccccc1	-18.1%	5.2%	20.4	-8.6	8.6	1.1	-1.1%
CCCCNC(=O)CNC(=O)c1nn(-c2ccc(OC)cc2OC)c(=O)c2ccccc12	20.9%	0.2%	35.5	4.4	-0.8	1.3	0.7%
Cc1nc(C)c(C(=O)Nc2cccc(Cl)c2)o1	1.5%	-0.5%[38.3 µM]	0.8	13.3	3.7	-0.1	1.0%
CC(C)(C)OC(=O)N/N=C\c1cccnc1	12.0%	-0.6%	7.7	4.4	1.3	1.1	x
NS(=O)(=O)c1ccc(CCNC(=O)CCCNC(=O)c2ccc(Cl)cc2)cc1	13.7%	0.8%	-10.0	20.1	-3.6	-0.6	x
O=C(Nc1ccccc1)Nn1cnnc1	14.0%	-1.0%	-15.0	-12.0	4.7	-0.7	x
COc1ccc(/C=N/NC(=S)Nc2ccccc2)cc1COc1cccc(C)c1C	0.8%	0.6%	4.8	7.8	u	0.3	-1.8%
COc1ccc(-c2nn(-c3ccccc3)cc2C(=O)NC2CCC(C)CC2)cc1 (stereo not given)	x	5.8%	14.1	-22.3	x	-0.2	x
CCOC(=O)Cn1nc(-c2ccc(F)cc2)oc1=O	11.2%	2.1%	13.8	-2.3	-1.1	0.6	0.7%
COCCCn1c(SCC(=O)n2c(C)c(C)c3ccccc32)nnc1-c1ccoc1C	-16.6%	-0.3%	11.9	9.0	5.3	2.3	9.9%
CC(CC(=O)O)CC(=O)Nc1ccccc1C(=O)O (stereo not given)	2.1%	-1.9%[38.3 µM]	-12.0	-1.8	0.3	-0.6	-15.9%
O=C(Nc1nccs1)C(c1ccccc1)N1CCCCC1 (stereo not given)	8.9%	1.1%	-8.5	1.8	-0.1	0.2	-1.5%
c1ccc(Nc2cc(Nc3ccccc3)[nH]n2)cc1	-12.6%	x	-1.8	-3.5	-1.5	0.3	-1.5%
N#Cc1nc(-c2cccs2)oc1N1CCN(Cc2ccccc2)CC1	9.1%	x	3.3	-12.2	-0.7	-0.1	25.1µM*
CN1CCCC1CCNc1ccc2oc3ccccc3c(=O)c2c1 (stereo not given)	-5.9%	10.9%	-11.1	7.6	-2.7	3.6	-4.3%
O=C(NNC(=O)c1ccc(Cl)c([N+](=O)[O-])c1)c1ccncc1	0.5%	-0.8%	-10.6	12.6	-1.2	-0.2	-1.7%
CCN(Cc1ccncc1)C(=O)c1cc(COc2ccc(C)c(C)c2)on1	-6.7%	-0.8%	-6.2	-1.2	x	0.3	1.7%
CCC(CC)C(=O)c1c[nH]c(C(=O)NCc2ccco2)c1	-0.2%	0.5%	6.6	4.8	3.5	0.1	-1.8%
CC(C)C[C@@H](CO)N1CCN(Cc2ccc([N+](=O)[O-])cc2)CCC1=O	u	-0.3%	24.0	5.6	0.5	-0.6&0.2	1.6%&0.5%
CC1Cc2cc(-c3csc(NC(=O)Cc4cccs4)n3)ccc2N1S(C)(=O)=O (stereo not given)	u	3.5%	-3.6	-5.4	14.2	-0.3	-1.7%
COCCNc1nc2c(c(=O)n(Cc3ccccc3F)c(=O)n2C)n1C	6.8%	1.1%	-8.8	5.8	1.7	-0.5	1.2%
C=CCOc1nc2c(c(=O)n(C)c(=O)n2C)n1Cc1ccc(Cl)cc1	5.9%	-0.4%	-17.3	-20.7	1.5	0.5	-0.2%
COC(=O)c1ccccc1NC(=O)COC(=O)CO/N=C(\C)c1ccc2c(c1)OCO2	-2.3%	4.7%	-0.2	12.8	x	0.0	-7.4%
Cc1ccc(S(=O)(=O)NCc2nc3nc(C)cc(C)n3n2)cc1	x	-0.5%	15.4	x	x	2.0	-5.5%
COc1ccc(C(=O)NC2CCN(C(=O)Nc3ccc(F)cc3)CC2)cc1	-6.2%	7.0%	-2.3	-4.4	1.2	-0.8	x
COc1ccc(C2=NS(=O)(=O)N(C)C(C(=O)N3CCCCC3C)=C2)cc1 (stereo not given)	-6.7%	-0.9%	0.7	25.2	-5.1	-0.5	-6.4%
O=C(/C=C/c1ccccc1Cl)NCc1ccccc1	1.0%	12.0%[38.3 µM]	-10.3	-6.3	4.6	0.0	-1.7%
COc1ccc(NC(=O)c2ccccc2NC(=O)c2cccs2)cc1	-13.6%	-2.2%	-6.2	-13.6	-1.9	1.9	x
Cn1cnnc1SCc1ccccc1	0.3%	-2.3%	19.3	8.4	0.4	0.9	-3.6%
Cc1nc(NC(=O)CSc2nnc(-c3ccncc3)n2C)sc1C	-4.3%	-2.9%	-5.0	-2.2	x	-0.6	x
Cc1cc(C(O)c2ncc(-c3ccc(Oc4ccccc4)cc3)[nH]2)ccc1F (stereo not given)	x	0.5%	x	x	x	-0.8	-2.2%
CCCC(=O)C1=C(O)C(c2cccc(Oc3ccccc3)c2)CCC1=O (stereo not given)	17.1%	0.1%	4.3	8.5	-1.4	0.5	-3.7%
COc1ccccc1CCNC(=O)c1ccc(NC(=O)CC2SC(N3CCCCC3)=NC2=O)cc1 (stereo not given)	x	2.0%	0.0	10.1	x	0.4	0.4%
COc1ccccc1-c1nnc(Sc2nc([N+](=O)[O-])nn2C)o1	9.3%	-5.0%[38.3 µM]	-5.8	1.8	1.4	0.3	-0.7%
CCCCNC(=O)c1ccc2c(c1)C(=O)N(Cc1ccncc1)C2=O	13.1%	0.5%	2.0	-11.2	x	-0.4	1.5%
COc1cccc(/C=N/N2C(=O)CSC2=S)c1O	u	1.2%	33.2	0.3	u	0.7	-5.3%
Cc1c2n(c3ccccc13)CCN(C)C2	x	0.4%	-4.6	17.4	x	-0.1	3.7%
CCOC(=O)c1c(NC(=O)c2cc(C)oc2C)sc(C(=O)Nc2ccc(Cl)cc2)c1C	-1.4%	12.0%	-4.1	0.1	4.8	-0.3	-3.5%
COc1ccc(C2N(C(=O)CN3CCOCC3)CCN2S(=O)(=O)c2ccccc2)cc1 (stereo not given)	6.7%	20.8%[38.3 µM]	-13.0	2.5	0.8	-0.7	-0.1%
COC(=O)c1c(NC(=O)CN2CCN(c3ncccn3)CC2)sc(C(N)=O)c1C	-4.1%	1.2%	3.3	4.0	9.5	-0.2	-3.8%
CN(C)c1ccc(/C=C\C=C/c2ccnc3ccccc23)cc1	x	11.2µM*	x	x	x	-0.3	-0.6%
COC(=O)c1c(C(=O)OC)c(-c2ccc(F)cc2)n2c1CSC2	19.6%	1.4%	-7.0	-2.7	7.6	-0.6	0.4%
COc1ccccc1NC(=O)Cc1nnc(SCC(=O)Nc2ccc(F)cc2F)n1C	15.4%	2.1%	3.9	9.4	-1.3	-0.1	x
O=C(NC1CC(=O)N(c2cccc(F)c2)C1)C1CC1 (stereo not given)	x	0.9%	-24.3	x	x	0.8	-1.1%
O=C(NCC(c1cccnc1)N1CCc2ccccc21)c1cccc(Br)c1 (stereo not given)	x	4.0%	-6.5	x	x	0.3	0.9%
COc1ccc2[nH]c3c(=O)n(/N=C/[C@H]4C(C)C=C(C)CC4C)c(=O)[nH]c3c2c1 (stereo not given in full)	-6.2%	-1.0%	-4.9	6.5	8.8	-0.4	3.5%
O=C(O)Cn1c(=O)cnc2ccccc21	14.0%	2.6%	4.6	11.5	20.1	0.1	-28.7%
Cc1cc(C)c2[nH]c(=O)c(CN(Cc3ccccc3)C(=S)NCCCN(C)C)cc2c1	16.1%	-1.4%	-6.0	-5.2	-4.1	-0.2	-12.7%
COC(=O)c1ccc(N/C(C)=C/C(=O)c2ccc(C)o2)cc1	9.9%	2.3%	-20.3	4.6	2.8	0.5	-0.8%
CCc1noc(C)c1C(=O)N1CCCC(CCC(=O)NCc2ccc(F)c(F)c2)C1 (stereo not given)	13.6%	1.0%	9.4	4.1	6.2	0.4	-1.6%
O=C(Oc1ccc(Cl)cc1)c1ccc(N2CCOCC2)c([N+](=O)[O-])c1	-3.7%	1.3%	-8.1	-0.6	6.2	0.2	-0.2%
CC(C)NC(=O)Nc1cccc2c1O[C@H](CN(C)S(C)(=O)=O)[C@@H](C)CN([C@H](C)CO)C2=O	x	-0.3%	5.4	x	x	-0.4	-0.9%
CC(=O)c1ccc(NC(=O)COCc2cc(-c3ccc(F)cc3)on2)cc1	x	1.6%	32.1	x	x	0.1	1.4%
O=C(COc1ccc(Cl)cc1)NCCNc1ccc([N+](=O)[O-])cc1	0.2%	0.3%	53.5	4.1	-4.5	1.0	-0.7%
CC(=O)Cn1ncc(N(C)Cc2ccccc2)c(Cl)c1=O	2.7%	-0.7%	12.4	-0.8	-1.1	1.3	x
